Anaer choline gr: growth inhibitors of anaerobic choline-fed gram-negatives, minimal medium, absorbance; Gram-negative bacterium anaerobic choline minimal medium; active compounds read low; many inactives read as strong as hits in the columns shown; calls only; actives 0.2% (n = 55,000); AID 1963822, 2024;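 active means growth z-score on choline under -2 at 7 or 20 h with little or no fall on glycerol, limits in tiers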;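 further: stock transfer was 300 nL into about 50 µL; the organism is E. coli; final concentration not given here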
Anaer choline gr early: recorded beside Anaer choline gr, whose call it bears; z-score; measured here: choline growth z-score, timepoint 1;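 score of optical density at 7 h as mean of two plates; lower means less growth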
The depositor's hits bear a star; i = inactive; + = active, no number; & = joins results of further samples. An excerpt, so the mix of outcomes need not match the whole.

Sample of the layout:
1: CO/C1=C\C(C)=C\[C@@H](C)[C@@H](O)[C@@H](C)C/C(C)=C/C=C/[C@H](OC)[C@@H]([C@@H](C)[C@@H](O)[C@H](C)[C@@]2(O)C[C@@H](O)[C@H](C)[C@@H](C(C)C)O2)OC1=O
2: N[C@H]1C[C@@H]1c1ccccc1
3: COCCCNC(=O)N1CCC2(C1)C(=O)Nc1ccc(OC)cc12 (stereo not given)
4: C[C@H](CCC(=O)O)C[C@H](C)C[C@H](C)C(=O)/C=C(\O)[C@H](C)C[C@H](C)C/C=C/[C@@H](C)[C@@H](O)[C@@H](C)[C@@H](O)C[C@@H]1CC[C@@](C)([C@H]2CC[C@@](C)([C@@H](C)O)O2)O1
5: C[N+]1(C)CCN(c2ccccc2)CC1
6: O=C1Nc2ccccc2NC12CCNCC2
7: CC(=O)NCCc1c[nH]c2ccccc12
8: CCCC(=O)N1CCC2(C1)C(=O)Nc1ccc(OC)cc12 (stereo not given)
9: C=C(C)[C@@H]1C2C(=O)O[C@H]1[C@H]1OC(=O)[C@@]34OC3C[C@]2(O)[C@@]14C (stereo not given in full)
10: CC[N+](CC)(CC)CC
11: O=C(O)CCC(CP(=O)(O)O)C(=O)O (stereo not given)
12: Cc1cc(SCc2sc(-c3ccc(C(F)(F)F)c(F)c3)nc2C)ccc1OCC(=O)O

| assay / entry | 1 | 2 | 3 | 4 | 5 | 6 | 7 | 8 | 9 | 10 | 11 | 12 |
| --- | --- | --- | --- | --- | --- | --- | --- | --- | --- | --- | --- | --- |
| Anaer choline gr | i | i | i | i | i | i | i | i | i | i | i | i |
| Anaer choline gr early | 0.63 | -1.1&0.44 | 0.67 | 0.48 | -0.97&-0.29 | 0.89 | 0.69&0.55 | -1.4 | 0.18 | 1 | 0.64 | 0 |

13: O=C(NCCN1CCC2(CC1)C(=O)NCN2c1ccccc1)c1ccc2ccccc2c1
14: CC(C)N1CCC2(CC1)NCCc1[nH]cnc12
15: Cc1cccc(OCC(=O)N2CCN(CC(=O)Nc3nnc(-c4ccccc4)s3)CC2)c1C
16: CN1CC[C@@H]2CN3CCc4cccc(c43)[C@@H]2C1
17: Cc1cccc(N2CCN(C(=O)CCc3nc(C4=CCN(C)CC4)no3)CC2C)c1 (stereo not given)
18: O=C(COc1ccc(F)cc1)N1CCN(Cc2cc(=O)n3nc(-c4ccc(F)cc4)sc3n2)CC1

| assay / entry | 13 | 14 | 15 | 16 | 17 | 18 |
| --- | --- | --- | --- | --- | --- | --- |
| Anaer choline gr | i | i | i | i | i | i |
| Anaer choline gr early | 0.4 | 0.88 | 0.2 | 0.17 | -0.44 | 0.42 |

Results, repeating the preview:
1: CO/C1=C\C(C)=C\[C@@H](C)[C@@H](O)[C@@H](C)C/C(C)=C/C=C/[C@H](OC)[C@@H]([C@@H](C)[C@@H](O)[C@H](C)[C@@]2(O)C[C@@H](O)[C@H](C)[C@@H](C(C)C)O2)OC1=O
2: N[C@H]1C[C@@H]1c1ccccc1
3: COCCCNC(=O)N1CCC2(C1)C(=O)Nc1ccc(OC)cc12 (stereo not given)
4: C[C@H](CCC(=O)O)C[C@H](C)C[C@H](C)C(=O)/C=C(\O)[C@H](C)C[C@H](C)C/C=C/[C@@H](C)[C@@H](O)[C@@H](C)[C@@H](O)C[C@@H]1CC[C@@](C)([C@H]2CC[C@@](C)([C@@H](C)O)O2)O1
5: C[N+]1(C)CCN(c2ccccc2)CC1
6: O=C1Nc2ccccc2NC12CCNCC2
7: CC(=O)NCCc1c[nH]c2ccccc12
8: CCCC(=O)N1CCC2(C1)C(=O)Nc1ccc(OC)cc12 (stereo not given)
9: C=C(C)[C@@H]1C2C(=O)O[C@H]1[C@H]1OC(=O)[C@@]34OC3C[C@]2(O)[C@@]14C (stereo not given in full)
10: CC[N+](CC)(CC)CC

| assay / entry | 1 | 2 | 3 | 4 | 5 | 6 | 7 | 8 | 9 | 10 |
| --- | --- | --- | --- | --- | --- | --- | --- | --- | --- | --- |
| Anaer choline gr | i | i | i | i | i | i | i | i | i | i |
| Anaer choline gr early | 0.63 | -1.1&0.44 | 0.67 | 0.48 | -0.97&-0.29 | 0.89 | 0.69&0.55 | -1.4 | 0.18 | 1 |

11: O=C(O)CCC(CP(=O)(O)O)C(=O)O (stereo not given)
12: Cc1cc(SCc2sc(-c3ccc(C(F)(F)F)c(F)c3)nc2C)ccc1OCC(=O)O
13: O=C(NCCN1CCC2(CC1)C(=O)NCN2c1ccccc1)c1ccc2ccccc2c1
14: CC(C)N1CCC2(CC1)NCCc1[nH]cnc12
15: Cc1cccc(OCC(=O)N2CCN(CC(=O)Nc3nnc(-c4ccccc4)s3)CC2)c1C
16: CN1CC[C@@H]2CN3CCc4cccc(c43)[C@@H]2C1
17: Cc1cccc(N2CCN(C(=O)CCc3nc(C4=CCN(C)CC4)no3)CC2C)c1 (stereo not given)
18: O=C(COc1ccc(F)cc1)N1CCN(Cc2cc(=O)n3nc(-c4ccc(F)cc4)sc3n2)CC1
19: COc1cc(C(O)CN)ccc1O (stereo not given)
20: CN[C@@H]1[C@@H](O)[C@@H](O[C@@H]2[C@@H](O)[C@H](O[C@H]3O[C@H]([C@@H](C)NC)CC[C@H]3N)[C@@H](N)C[C@H]2N)OC[C@]1(C)O

| assay / entry | 11 | 12 | 13 | 14 | 15 | 16 | 17 | 18 | 19 | 20 |
| --- | --- | --- | --- | --- | --- | --- | --- | --- | --- | --- |
| Anaer choline gr | i | i | i | i | i | i | i | i | i | i |
| Anaer choline gr early | 0.64 | 0 | 0.4 | 0.88 | 0.2 | 0.17 | -0.44 | 0.42 | 0.6 | 0.79 |

21: COc1ccc(C2c3cccn3-c3ccccc3CN2C(=O)Nc2ccc(C)c(C)c2)cc1 (stereo not given)
22: CN(C(=O)Cc1ccc(Cl)c(Cl)c1)C(CN1CCCC1)c1cccc(OCC(=O)O)c1 (stereo not given)
23: CN1C2CCC1CC(OC(c1ccccc1)c1ccc(Cl)cc1)C2 (stereo not given)
24: COc1cc2c(cc1OC)C(C)NCC2 (stereo not given)
25: O=C(CCc1nc(C2=CCN(Cc3ccc(Cl)cc3)CC2)no1)Nc1cccc(Cl)c1
26: C=C(C)[C@H]1CN[C@H](C(=O)O)[C@H]1CC(=O)O
27: C[C@H](N)C(=O)N[C@@H](C)C(=O)N[C@@H](Cc1ccccc1)C(=O)CCl
28: CC(C)(O)[C@H]1O[C@H]2CC[C@@]3(C)[C@@](O)(CC[C@H]4Cc5c([nH]c6ccccc56)[C@@]43C)C2=CC1=O
29: OC1C2CN3CN(C2)CC1(c1ccccc1)C3 (stereo not given)
30: c1ccc2c(c1)[I+]c1ccccc1-2

| assay / entry | 21 | 22 | 23 | 24 | 25 | 26 | 27 | 28 | 29 | 30 |
| --- | --- | --- | --- | --- | --- | --- | --- | --- | --- | --- |
| Anaer choline gr | i | i | + | i | i | i | i | i | i | i |
| Anaer choline gr early | -0.28 | 0.3 | -2.8* | 1.6 | 0.64 | -0.2&0.18 | 0.09 | 0.14 | 1.1 | -4.5&-4.2&-3 |

31: CCCCCCCCCCCCCCCC[n+]1ccccc1
32: C#CCN(C)[C@H](C)Cc1ccccc1
33: COc1ccc(NC(=O)CCc2nc(C3=CCN(Cc4ccc(Cl)cc4)CC3)no2)cc1Cl
34: C=C1N[C@@H](Cc2ccc3[nH]cc(CCN(C)C)c3c2)CO1
35: CC(=O)O[C@H]1C[C@H](O[C@H]2[C@@H](O)C[C@H](O[C@H]3[C@@H](O)C[C@H](O[C@H]4CC[C@@]5(C)[C@H](CC[C@@H]6[C@@H]5C[C@@H](O)[C@]5(C)[C@@H](C7=CC(=O)OC7)CC[C@]65O)C4)O[C@@H]3C)O[C@@H]2C)O[C@H](C)[C@H]1O[C@@H]1O[C@H](CO)[C@@H](O)[C@H](O)[C@H]1O
36: Cc1[nH]c(=O)[nH]c(=O)c1C1N2CC3(C)CN1CC(C)(C2)C3=O (stereo not given)
37: CN1CCC[C@@H]1Cc1c[nH]c2ccc(Nc3ncccc3[N+](=O)[O-])cc12
38: C[C@]12CCC(O)C[C@@H]1CC[C@@H]1[C@H]2CC[C@]2(C)C(=O)CC[C@@H]12 (stereo not given in full)
39: Cc1cccc(CN2CC=C(c3noc(CCC(=O)Nc4ccc(Br)cc4C)n3)CC2)c1
40: COc1ccc2[nH]c3c(c2c1)CCNC3

| assay / entry | 31 | 32 | 33 | 34 | 35 | 36 | 37 | 38 | 39 | 40 |
| --- | --- | --- | --- | --- | --- | --- | --- | --- | --- | --- |
| Anaer choline gr | i | i | i | i | i | i | i | i | i | i |
| Anaer choline gr early | -2.8 | 0.38&-0.32&-1.3 | -0.82 | -0.43 | 0.24 | -0.28 | -0.21 | -0.29 | 0.51 | -0.03 |

41: O=C(Cc1ccc(F)cc1)N1CCN(Cc2noc(-c3ccccc3)n2)CC1
42: Cc1cccc(CN2CC=C(c3noc(CCC(=O)N4CCCc5ccccc54)n3)CC2)c1
43: CCC[C@@H]1CC2=CC(=O)CC[C@]2(C)[C@H]2CC[C@@]3(C)[C@@H](CC[C@@]3(O)CCC(=O)O)[C@H]12
44: O=C(COc1ccccc1Cl)N1CCN(CCc2ccccn2)CC1
45: CN1C(=O)[C@]23CC4=CC=C[C@H](O)[C@H]4N2C(=O)[C@@]1(CO)SS3
46: CC1CCCC(O)CCCCCc2cc(O)cc(O)c2C(=O)O1 (stereo not given)
47: O=C1CCN(CC(=O)c2ccc3cc[nH]c3c2)CC1
48: CCCCCc1cc(O)c2c(c1)OC(C)(C)[C@@H]1CCC(C(=O)O)=CC21 (stereo not given in full)
49: CCCCC/C=C\C/C=C\C/C=C\C/C=C\CCCC(=O)NCc1ccoc1
50: CCCCC/C=C\C/C=C\C/C=C\C/C=C\CCCC(=O)NCCO

| assay / entry | 41 | 42 | 43 | 44 | 45 | 46 | 47 | 48 | 49 | 50 |
| --- | --- | --- | --- | --- | --- | --- | --- | --- | --- | --- |
| Anaer choline gr | i | i | i | i | i | i | i | i | i | i |
| Anaer choline gr early | -0.55 | 0.21 | 0.14 | -1.1 | -4.1 | 0.67 | -1.3 | 0.21 | 0.14 | -0.13 |

51: O=C(Nc1nc2ccccc2s1)c1cccn(Cc2ccccc2)c1=O
52: CCN(CC)C(=O)c1ccc2c(c1)N(CC(=O)NCc1ccc3c(c1)OCO3)C(=O)C1CCCCN21 (stereo not given)
53: CN1C(=O)c2ccccc2Oc2ccc(C(=O)N3CCC4(CC3)OCCO4)cc21
54: O=c1c2ccccc2nc(N2CCCCC2)n1-c1ccccc1
55: CC(C)Oc1cccnc1N(C)C1CCN(Cc2ccccc2)CC1
56: O=C(Nc1nccs1)c1cccn(Cc2cccc(Cl)c2)c1=O
57: CCNC(=O)[C@H]1O[C@@H](n2cnc3c(N)ncnc32)C(O)[C@H]1O (stereo not given in full)
58: CCOC(=O)Cc1ccc(NC(=O)N2Cc3ccccc3-n3cccc3C2c2ccccc2C)cc1 (stereo not given)
59: CC(NC(C)(C)C)C(=O)c1cccc(Cl)c1 (stereo not given)
60: CC(=O)O[C@H]1CC[C@@]2(C)C(=CC[C@@H]3[C@@H]2CC[C@]2(C)C(=O)CC[C@@H]32)C1

| assay / entry | 51 | 52 | 53 | 54 | 55 | 56 | 57 | 58 | 59 | 60 |
| --- | --- | --- | --- | --- | --- | --- | --- | --- | --- | --- |
| Anaer choline gr | i | i | i | i | i | i | i | i | i | i |
| Anaer choline gr early | -0.11 | 0.19 | 0.22 | 0.4 | 0.05 | 0.96 | -0.54 | 0.97 | 1&0.44&0.25&0.38&0.28 | 0.68 |

61: CCOC(=O)Cc1ccc(NC(=O)N2Cc3ccccc3-n3cccc3C2c2ccc(F)cc2)cc1 (stereo not given)
62: COc1ccc2c(c1)C1(CCN(C(=O)NCCC(C)C)C1)C(=O)N2 (stereo not given)
63: CC1(C(=O)O)C2CCC(O2)C1(C)C(=O)O (stereo not given)
64: CCOC(=O)c1cc(S(=O)(=O)N2CC3CC(C2)c2cccc(=O)n2C3)cn1C (stereo not given)
65: NCCCP(=O)(O)O
66: COc1cccc(CC(=O)N2CCN(Cc3noc4ccccc34)CC2)c1
67: O=C(Cc1ccc(Cl)c(Cl)c1)N1CCCCC1CN1CCCC1 (stereo not given)
68: CN1CCc2cc(O)cc3c2[C@H]1Cc1ccc(O)c(O)c1-3
69: COc1cc(OC)cc(C(=O)N2CCC3(C2)C(=O)N(C)c2ccc(OC)cc23)c1 (stereo not given)
70: C[C@@H]1CC([C@H](O)CC2CC(=O)NC(=O)C2)C(=O)[C@@H](C)C1 (stereo not given in full)

| assay / entry | 61 | 62 | 63 | 64 | 65 | 66 | 67 | 68 | 69 | 70 |
| --- | --- | --- | --- | --- | --- | --- | --- | --- | --- | --- |
| Anaer choline gr | i | i | i | i | i | i | i | i | i | i |
| Anaer choline gr early | 0.93 | 0.6 | -0.08 | 0.53 | -0.09 | -0.58 | -0.23&-0.96 | 1.3 | 1.1 | -0.85 |

71: COc1cc(/C=C\c2ccc(OC)c(O)c2)cc(OC)c1
72: Clc1cccc(SC2CCNCC2)n1
73: COc1ccc2c(c1)C1(CCN(C(=O)NCCC(C)C)C1)C(=O)N2C (stereo not given)
74: CCCN(CCC)[C@@H]1CCc2c(OC)cccc2[C@@H]1C
75: CCN1CCCC2(C1)N=C(c1ccccc1)C(=O)N2 (stereo not given)

| assay / entry | 71 | 72 | 73 | 74 | 75 |
| --- | --- | --- | --- | --- | --- |
| Anaer choline gr | i | i | i | i | i |
| Anaer choline gr early | 0.76 | 0 | 0.86 | 0.55 | -0.48 |

Screening results as filed in PubChem BioAssay.
